HSV replic up: HSV replication enhancement | AID 1956 | HSV replication augmentation in cells, fold increase | hit rate 0.005% among 220,000 | maximum fold increase;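 active = peak rise of 1.5-fold or more in the series; tested in PC3 cells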;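 also: first round at 10 µM; read as green reporter fluorescence; hits show the peak of a series up to 25 µM; 1 = signal of infected wells without compound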
GALR2 ag: GALR2 (human) receptor agonism; GALR2-expressing cells, agonist activation read-out; hit rate 0.48% among 140,000; activation, %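 (tested at 5 µM)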; O43603; AID 803;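 active = above mean plus 3 SD of all compounds, about 5% in these data, not always enough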;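 also: 0% = vehicle buffer wells and 100% = reference agonist at full effect; tested in CHO reporter cells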
Target sequence (O43603 whole entry, looked up): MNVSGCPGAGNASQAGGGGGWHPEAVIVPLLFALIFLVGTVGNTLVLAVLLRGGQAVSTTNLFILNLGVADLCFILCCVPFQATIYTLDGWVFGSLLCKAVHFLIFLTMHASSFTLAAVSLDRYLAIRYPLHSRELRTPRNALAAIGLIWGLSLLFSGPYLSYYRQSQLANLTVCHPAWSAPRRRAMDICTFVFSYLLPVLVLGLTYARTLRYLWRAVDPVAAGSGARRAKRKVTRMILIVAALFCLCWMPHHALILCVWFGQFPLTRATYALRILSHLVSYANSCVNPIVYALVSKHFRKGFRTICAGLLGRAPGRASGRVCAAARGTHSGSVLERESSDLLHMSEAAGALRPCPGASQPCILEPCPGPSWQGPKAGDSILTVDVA
PKD1 kinase inh: PKD1 (human) kinase inhibition. Q15139. inhibition, %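 (about 10 µM by stock and volumes)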. PKD1 kinase fluorescence polarization assay. hit rate 0.056% among 200,000;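 active = inhibition of 50% or more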;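 also: controls were vehicle for no effect and a reference inhibitor for full effect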
Insulin prom inh: TRM-6 insulin promoter activity inhibition | hit rate 0.9% among 130,000 | inhibition, % at 2 µM | TRM-6 cells (human fetal islet line), insulin promoter-eGFP reporter, imaging; reporter expression induced with tamoxifen;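 active = inhibition above the mean plus 3 SD, with well images judged a real hit on visual review, cut at about 60% in these data, passing the limit was not always enough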
RGS16-Gao HTS: regulators of human RGS16-Galphao interaction; binding response (% of control), % at 10 µM; hit rate 0.38% among 220,000; bead-based flow cytometry RGS16-Galphao binding, fluorescence; actives lie on both sides; O15492+P09471;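 active = below 25% or above 175%, edge rows of some plates excepted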;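 also: Galphao activated by GDP with aluminum fluoride before binding; 100% = wells without compound and 0% = beads without RGS; some results beyond the cut were filed as inactive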
Target sequence (O15492 whole entry, looked up): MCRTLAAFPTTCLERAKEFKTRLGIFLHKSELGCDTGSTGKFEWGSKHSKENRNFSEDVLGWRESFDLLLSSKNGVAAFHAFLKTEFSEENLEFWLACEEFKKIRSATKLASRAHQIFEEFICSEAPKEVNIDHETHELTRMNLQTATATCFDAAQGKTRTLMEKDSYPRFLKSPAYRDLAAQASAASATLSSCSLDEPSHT
Target sequence (P09471 whole entry, looked up): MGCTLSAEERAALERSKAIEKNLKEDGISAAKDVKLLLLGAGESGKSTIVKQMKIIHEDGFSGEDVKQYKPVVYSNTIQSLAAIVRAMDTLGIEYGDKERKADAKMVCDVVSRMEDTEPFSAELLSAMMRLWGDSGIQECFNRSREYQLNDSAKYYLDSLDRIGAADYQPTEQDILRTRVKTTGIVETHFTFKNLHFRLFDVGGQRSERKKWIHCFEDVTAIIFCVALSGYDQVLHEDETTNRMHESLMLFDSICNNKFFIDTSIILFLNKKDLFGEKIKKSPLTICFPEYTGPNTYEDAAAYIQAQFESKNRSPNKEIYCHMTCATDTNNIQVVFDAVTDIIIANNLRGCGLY
Insulin prom inh cell count: also measured in Insulin prom inh; calls as there; normalized cell count, %; measured here: cell count, toxicity; reference of the scale not given here;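 cells exposed to compound for 48 h; stained nuclei by imaging scaled within each plate; lower means fewer cells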
HSV replic up primary fold: further read-out of HSV replic up, marked with its call; fold increase; compound at 10 µM; measured here: primary screen fold increase 10 uM; tested in PC3 cells;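 GFP signal in the first replicate; 1 = infected wells without compound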
* marks the source's active call; other numbers are inactive results; i = inactive; nt = not tested or not shown.

Each structure is followed by: HSV replic up	HSV replic up primary fold	GALR2 ag	PKD1 kinase inh	Insulin prom inh	Insulin prom inh cell count	RGS16-Gao HTS
CC(C)C[C@H](NC(=O)NCc1ccc(Cl)cc1)C(=O)O
 : i	0.98	0.1	-13	33	131	103
Cc1cccc(C)c1NC(=O)CS(=O)CC(=O)NCC1OCCc2ccccc21 (stereo not given)
 : i	0.96	nt	-2	nt	nt	106
CC1Cc2ccccc2N1C(=O)COc1cccc(-n2cnnn2)c1 (stereo not given)
 : i	0.93	-3.6	-15	-21	128	90
CC(C)C(c1nnnn1Cc1cccs1)N1CCN(C(=O)c2ccco2)CC1 (stereo not given)
 : i	0.96	nt	2	-38	128	110
CN1C(=O)/C(=C2\SC(N)=NC2=O)c2ccccc21
 : nt	nt	-0.9	6	-10	122	94
COc1ccc(NC(=S)NC23CN4CN(CN(C4)C2)C3)c(OC)c1
 : i	1	nt	-3	43	106	232
Cc1cc(=O)[nH]c(SCC(=O)Nc2ccc(C(=O)O)cc2)n1
 : i	1.1	-0.8	-19	45	80	102
COc1cccc(/C=N/Nc2nn3cnnc3c3ccccc23)c1O
 : nt	nt	-0.9	-1	-5	161	93
CC1CCCC(C)N1C(=O)COc1ccc([N+](=O)[O-])cc1Cl (stereo not given)
 : i	1.2	nt	7	nt	nt	104
O=C(Cc1cscn1)c1ccc(O)cc1O
 : i	1.1	-2.1	4	nt	nt	112
NS(=O)(=O)c1ccc(NC(=O)C2C3C=CC(C3)C2C(=O)O)cc1 (stereo not given)
 : i	1.1	nt	-6	nt	nt	108
CCC(C(=O)NC1CCCCC1)n1c(SCc2cccc(C)c2)nc2ccncc21 (stereo not given)
 : i	0.89	-0.5	2	40	91	95
COc1ccc(-c2csc(NC(=O)CC(C)C)n2)cc1
 : i	0.96	-1.0	4	-277	82	84
CCOc1ccc(C(=O)N2CCn3c2nc2ccccc23)cc1
 : i	0.97	nt	-10	19	80	98
Cn1c(=O)cc(SCC(=O)NCC2CCCO2)c2ccc(Cl)cc21 (stereo not given)
 : i	0.88	-2.2	-1	nt	nt	111
CCC(C)NC(=O)Cn1c(=O)sc2ccccc21 (stereo not given)
 : i	0.97	nt	-5	nt	nt	96
O=C(COC(=O)CC12CC3CC(CC(Br)(C3)C1)C2)NC(=O)NCc1ccco1
 : i	0.87	0.4	-8	-39	91	95
CC1(C)Cc2c(sc(NC(=O)c3ccccc3Cl)c2C(=O)O)CO1
 : i	0.9	nt	-4	nt	nt	102
O=S(=O)(NCC(c1cccnc1)N1CCN(Cc2ccccc2)CC1)c1ccccc1 (stereo not given)
 : i	0.81	-1.9	-4	nt	nt	102
CCN(CC)S(=O)(=O)c1ccc(NS(=O)(=O)CC23CCC(CC2=O)C3(C)C)cc1 (stereo not given)
 : i	0.95	-1.1	-6	14	139	99
C(=N\c1c(-c2ccccc2)nc2n1CCS2)/c1ccccc1
 : i	0.79	-3.2	11	-8	149	91
O=C(O)c1ccc([N+](=O)[O-])c(CS(=O)(=O)c2ccc(Cl)cc2)c1
 : i	0.95	nt	1	18	127	116
CCCN(CCC)S(=O)(=O)c1cc(Br)cc2c1N(C(=O)CC)CC2
 : i	0.89	nt	nt	nt	nt	109
CCc1ccccc1NC(=O)CN(C)C(=O)CSc1nn(-c2ccc(F)cc2)c(=S)s1
 : i	1.1	-0.8	-2	nt	nt	105
O=C(c1ccc(S(=O)(=O)c2ccc(F)cc2)c([N+](=O)[O-])c1)N1CCCCCC1
 : i	0.76	-0.6	-2	27	125	96
CCOC(=O)C1CCCN(CC(=O)Nc2c(C(=O)OC)[nH]c3ccc(Br)cc23)C1 (stereo not given)
 : i	0.92	-3.3	9	-3	123	110
CCC(CC)NC(=O)c1ccc(Cl)cc1
 : i	0.98	-1.1	11	0	76	105
O=C(NCc1ccccc1)c1ccc2nnsc2c1
 : i	1	nt	nt	nt	nt	104
COc1ccc(-n2cc(C#N)c(=O)n(Cc3ccc(F)cc3)c2=O)cc1
 : i	0.86	nt	-4	nt	nt	97
CCNC(=S)Nc1ccc(Cl)cc1
 : i	0.92	-1.4	4	13	93	110
CCOC(=O)/C(=C\c1ccc(Cl)cc1)c1nc2sc(C)c(C)c2c(=O)[nH]1
 : i	0.73	2.0	-15	20	83	118
Cc1ccc(C(=O)N/N=C(\CC(C)C)c2ccccc2)cc1
 : i	0.93	0.5	-9	-14	141	40
COc1cccc(C2CC(c3ccc(C)cc3)Nc3nc(N)nn32)c1 (stereo not given)
 : i	1.2	-0.6	-6	nt	nt	96
Cc1ccn2c(Nc3ccccc3C)c(-c3ccncc3)nc2c1
 : i	0.73	-0.7	-7	38	142	112
CN(C)c1ccc(NS(=O)(=O)c2cccc(Cl)c2)cc1
 : i	0.97	-1.5	-4	11	97	93
Cc1ccsc1/C=N/N=C1\C(=O)Nc2ccccc21
 : i	0.82	-0.1	-6	9	102	106
O=C(COC(=O)c1cccc(C(=O)OCC(=O)c2ccc(Br)cc2)n1)c1ccc(Br)cc1
 : i	1	-1.4	-2	1	59	100
COc1ccccc1-c1c(C#N)c(N)nc2c1CCc1ccccc1-2
 : i	0.76	5.7*	-1	-9	65	56
COC(=O)c1cnn(-c2ccccc2)c1N
 : i	1.1	nt	nt	nt	nt	106
COc1ccc(COc2ccccc2C(=O)NCc2ccccc2)cc1F
 : i	0.92	-1.1	-8	-17	81	54
O=C(Nc1ccc(Cc2ccncc2)cc1)C1CCC(N2C(=O)C3C4C=CC(C4)C3C2=O)CC1 (stereo not given)
 : i	1	-2.3	0	42	123	98
Cc1cc2c(cc1C)NC(c1ccccn1)C1=C(CC(C)(C)CC1=O)N2 (stereo not given)
 : i	1	-0.4	-8	-117	122	-117
O=C(CN1C(=O)NC2(CCCCC2)C1=O)Nc1ccc2c(c1)CCC2
 : i	1.2	nt	8	nt	nt	92
Cc1ccc(S(=O)(=O)c2ccc(Cl)cc2)cc1S(=O)(=O)NC(C(=O)O)C(C)C (stereo not given)
 : i	0.94	-0.8	-19	-4	127	107
CN(C)CCCN(C(=O)c1sc2ccccc2c1Cl)c1nc2c(F)cccc2s1
 : i	0.97	0.2	0	nt	nt	102
COc1ccc(OCC(=O)N2CCN(c3cccc(Cl)c3)CC2)cc1
 : nt	nt	-0.9	1	21	128	96
CCCCC(CC)CNC(=O)c1cc2ccccc2c(=O)o1 (stereo not given)
 : i	0.91	-1.2	3	43	161	84
Cc1cc(C(F)(F)F)nn1CC(=O)N(C)C1CCCCC1
 : i	0.94	-1.4	-6	7	114	nt
Cc1cc(-c2ccccc2)nc(N(C)NC(=O)c2ccc(Cl)cc2)c1S(C)(=O)=O
 : i	0.77	-0.9	-4	42	130	97
CC(=O)N1CCN(C(=S)NC(=O)C23CC4CC(CC(C4)C2)C3)CC1
 : i	0.98	nt	-4	nt	nt	101
O=C(Cn1c(=O)n2ncnc2c2c3c(sc21)CCCC3)c1ccccc1
 : i	0.9	-0.2	-6	-22	120	100
CCC(CC)C(=O)Nc1cccc(C(=O)Nc2nccs2)c1
 : i	0.89	-0.8	-6	-76	176	98
COC(=O)CCn1c(C)cc(C(=O)COc2ccccc2C(N)=O)c1C
 : i	0.88	nt	-4	0	158	105
CCN(CC(=O)Nc1c(C(=O)OC)[nH]c2ccccc12)c1ccc2c(c1)OCO2
 : i	0.91	-3.3	-2	31	137	107
COC(=O)/C=C/C(=O)N1CCN(c2ccccc2)CC1
 : i	0.94	-0.8	-7	33	137	102
COc1ccc(-c2cc(C(=O)O)c(C)o2)cc1OC
 : i	1	-3.0	-11	6	127	100
Cc1ccc(SC(C)C(=O)Nc2ccccc2C(=O)N2CCOCC2)cc1 (stereo not given)
 : i	0.95	-1.0	-4	-83	73	100
COc1ccc(C(=O)NC(C(=O)NCC2CCCO2)C(C)C)cc1 (stereo not given)
 : i	0.94	nt	0	82*	31*	103
Cc1c(-c2ccc(Br)cc2)[n+](=O)c2c(n1[O-])CCCC2
 : i	0.96	nt	8	nt	nt	99
COC(=O)C1CCN(c2cc(=O)n(C3CCCCC3)c(=O)[nH]2)CC1
 : i	0.9	-2.5	2	-36	89	99

An excerpt of these results, comma-delimited.
Structure,HSV replic up,HSV replic up primary fold,GALR2 ag,PKD1 kinase inh,Insulin prom inh,Insulin prom inh cell count,RGS16-Gao HTS
COc1ccc(-c2cc(C(=O)O)c(C)o2)cc1OC,i,1,-3.0,-11,6,127,100
CN1C(=O)/C(=C2\SC(N)=NC2=O)c2ccccc21,nt,nt,-0.9,6,-10,122,94
O=C(CN1C(=O)NC2(CCCCC2)C1=O)Nc1ccc2c(c1)CCC2,i,1.2,nt,8,nt,nt,92
COC(=O)/C=C/C(=O)N1CCN(c2ccccc2)CC1,i,0.94,-0.8,-7,33,137,102
O=C(Nc1ccc(Cc2ccncc2)cc1)C1CCC(N2C(=O)C3C4C=CC(C4)C3C2=O)CC1 (stereo not given),i,1,-2.3,0,42,123,98

Given with bars between the fields: 6 of the compounds above.
SMILES | HSV replic up | HSV replic up primary fold | GALR2 ag | PKD1 kinase inh | Insulin prom inh | Insulin prom inh cell count | RGS16-Gao HTS
COc1ccc(OCC(=O)N2CCN(c3cccc(Cl)c3)CC2)cc1 | nt | nt | -0.9 | 1 | 21 | 128 | 96
Cc1cc(C(F)(F)F)nn1CC(=O)N(C)C1CCCCC1 | i | 0.94 | -1.4 | -6 | 7 | 114 | nt
O=C(Cn1c(=O)n2ncnc2c2c3c(sc21)CCCC3)c1ccccc1 | i | 0.9 | -0.2 | -6 | -22 | 120 | 100
COC(=O)CCn1c(C)cc(C(=O)COc2ccccc2C(N)=O)c1C | i | 0.88 | nt | -4 | 0 | 158 | 105
Cc1cc(-c2ccccc2)nc(N(C)NC(=O)c2ccc(Cl)cc2)c1S(C)(=O)=O | i | 0.77 | -0.9 | -4 | 42 | 130 | 97
CC(=O)N1CCN(C(=S)NC(=O)C23CC4CC(CC(C4)C2)C3)CC1 | i | 0.98 | nt | -4 | nt | nt | 101

More results
Each structure is followed by: HSV replic up	HSV replic up primary fold	GALR2 ag	PKD1 kinase inh	Insulin prom inh	Insulin prom inh cell count	RGS16-Gao HTS
COc1ccc(-c2csc(NC(=O)c3ccc(N4C(=O)CCC4=O)cc3)n2)cc1
 : i	1.1	nt	2	26	72	104
CC(C)c1ccc(N(CC(=O)NCC2CCCO2)C(=O)Cn2nnc(-c3cccs3)n2)cc1 (stereo not given)
 : i	1.1	nt	5	nt	nt	106
COc1ccc(S(=O)(=O)Nc2ccc(S(=O)(=O)N3CCOCC3)cc2)cc1
 : i	0.78	-1.3	1	nt	nt	100
Cc1cc([N+](=O)[O-])ccc1NC(=O)c1ccc(NC(=O)C(C)C)cc1
 : i	0.81	nt	3	nt	nt	95
COc1ccc(-n2c(=O)[nH]cc(C(=O)Nc3ccc4c(c3)OCCO4)c2=O)cc1
 : i	0.98	-0.1	0	-29	112	101
CC1=C(C)C(=O)N(c2ccccn2)C1=O
 : i	0.87	1.0	0	-57	64	97
CCc1nc2ccccc2[nH]1
 : i	1	-2.2	-8	-287	63	103
Cc1cc(C)nc(NS(=O)(=O)c2ccc(NC(=O)CCN3C(=O)c4ccccc4C3=O)cc2)n1
 : i	1.1	-0.5	-11	-14	95	91
Cc1ccc(OCC(=O)NNC(=O)CCc2ccccc2)cc1
 : i	0.89	-0.6	-13	9	103	106
Cc1cc(-c2nnc(-c3cc4ccccc4oc3=O)o2)c(C)n1-c1ccccc1
 : i	0.95	0.2	-3	nt	nt	91
CC(C)=N/N=C(\c1cccc([N+](=O)[O-])c1)C12CN3CN(CN(C3)C1)C2
 : i	0.94	-2.6	-2	8	137	96
c1ccc2c(c1)nc(N1CCOCC1)c1nncn12
 : nt	nt	-0.3	4	39	122	87
CCOC(=O)c1c(NC(=O)CSc2nnnn2-c2ccc3c(c2)OCCO3)sc(C)c1C
 : i	0.82	-0.3	-2	62	126	96
CCN(CC)S(=O)(=O)c1ccc2oc(C(=O)NCC3COc4ccccc4O3)c(C)c2c1 (stereo not given)
 : i	1	-0.9	-5	-16	102	77
Cc1nnc2ccc(-c3cccc(NS(C)(=O)=O)c3)nn12
 : i	0.9	nt	1	nt	nt	95
C/C(=N\NC(=O)CCCC(=O)O)c1c(-c2ccccc2)c2cc(Cl)ccc2[nH]c1=O
 : i	1.1	nt	nt	nt	nt	97
O=C(NN1CCCCC1)c1ccccc1
 : i	0.99	-0.8	-3	29	112	101
O=C(c1noc2c1CCc1ccccc1-2)N1CCc2ccccc2C1
 : i	0.95	-2.0	8	6	109	40
CC(NC(=O)c1ccc(Br)o1)c1ccccc1 (stereo not given)
 : i	0.84	nt	2	nt	nt	102
Cc1ccc(N=C(NOC(=O)c2ccccc2)c2nonc2N)c(C)c1
 : i	0.92	-1.8	-4	-9	86	102

Source: PubChem BioAssay
